StopGo FLuc: lowers the firefly signal of an FMDV 2A StopGo reporter | HEK cells with a luciferase reporter of 2A StopGo recoding | 120,000 compounds, 0.23% hits | Potency, µM (top dose mostly 57.5 µM), for inactives: top-dose signal change, negative = less light; active = well fitted falling curve with a large enough effect; inconclusive = small, poorly fitted or top-dose-only effect; inactive = no such curve, though single readings can be large or run the other way; further: nearly all actives have a fitted effect of over 60% in size; overnight with compound
StopGo RLuc: FMDV 2A StopGo reporter, Renilla signal. Potency, µM (series often up to 57.5 µM), for inactives: at the top dose signal change, negative = less light. 120,000 compounds, 0.32% hits. HEK cells with a luciferase reporter of 2A StopGo recoding. AID 1745857; active means well fitted falling curve with a large enough effect; inconclusive means small, poorly fitted or top-dose-only effect; inactive means no such curve, though single readings can be large or run the other way; further: nearly all actives have a fitted effect of over 55% in size; overnight with compound
An asterisk follows results filed as active; ? = inconclusive; [ ] = another dose, or the depositor's remark. On the % scale 0 is the no-effect control and ±100 the full control effect; potency means the concentration at half of the fitted maximal effect.

SMILES | StopGo FLuc | StopGo RLuc
Cc1[nH]ccc(=O)c1OCC(=O)Nc1ccc(Cl)c(Cl)c1 | 116.0%[activator] | 14.3%
CCc1noc(C)c1C(=O)Nc1ccc(C(C)(C)C)cc1 | 126.1%[activator] | 8.0%
Cc1cc(-c2ccc(C)c(S(=O)(=O)N(Cc3cccs3)C(C)C)c2)on1 | ? | ?
CSC(C)C(=O)Nc1ccccc1I (stereo not drawn) | 22.8% | 15.1%
CCc1c(C)nc(SCC(=O)N2CCN(c3ccccc3OC)CC2)[nH]c1=O | 0.0% | 0.0%
Cc1cccc(NC(=O)c2n[nH]nc2Nc2ccc(Cl)cc2)c1 | 12.7% | -10.1%
CCCC1=Nc2cc(C(=O)NC(C)c3ccccc3)ccc2Sc2ccc(C)cc21 (stereo not drawn) | 17.4% | 19.7%
CC(C)CC(=O)n1nc(-c2ccco2)nc1NCc1ccc(Cl)cc1 | 13.2% | -2.5%
Cc1cc(F)ccc1S(=O)(=O)Nc1ccccc1-c1n[nH]c(C2CC2)n1 | 4.3% | 101.7%[activator]
CN(C)c1ccc(-c2nc(-c3ccncc3)no2)cc1[N+](=O)[O-] | 156.8%[activator] | -0.1%
CCC(CC)NC(=O)c1cc(C(C)C)nc2c1cnn2C(C)C | -9.4% | 14.5%
CC(=O)c1ccc(NC(=O)Cn2cc3c(n2)CCCC3)cc1 | 34.9%[activator] | -8.8%
Cc1ccc(CNc2nnc(C)c3nnn(Cc4ccc(F)cc4)c23)cc1 | -16.9% | -6.6%
COc1ccc2cc(C(=O)NCCNC(C)=O)c(C)nc2c1 | 14.0% | -7.9%
COc1ccc(C(CC(=O)Nc2cc(OC)c(OC)c(OC)c2)N2Cc3ccccc3C2=O)cc1 (stereo not drawn) | -13.1% | 230.0%[activator]
CCOc1ccc(-c2nc(C#N)c(NCc3ccccc3Cl)o2)cc1 | -5.2% | 2.2%
CCCCCCOc1ccc(/C=C/C(=O)Nc2sc3c(c2C(=O)OC)CCC3)cc1OC | ? | ?
COCc1cc(C)nc2sc(C(=O)Nc3ccc(C(C)=O)cc3)c(N)c12 | 118.0%[activator] | 41.1%[activator]
CCOc1ccc(CC(=O)NC2CC(=O)N(c3ccc4c(c3)OCCO4)C2)cc1 (stereo not drawn) | -14.9% | -8.8%
NC(=O)c1ccccc1NC(=O)c1cc(=O)c2ccccc2o1 | 208.3%[activator] | 4.3%
CC(=O)c1ccc(NC(=O)C(C)Sc2ncnc3ccccc23)cc1 (stereo not drawn) | 6.6% | -14.5%
COc1cccc(N2CCN(S(=O)(=O)c3ccc4[nH]c5c(c4c3)CCCC5)CC2)c1 | -12.0% | 31.5%[activator]
CC(C)(C)CNC(=O)c1nc[nH]c1C(=O)N1CCOCC1 | 17.6% | 9.2%
CCOC(=O)N1CCN(C(=O)c2cc3occc3n2Cc2ccccc2F)CC1 | 1.0% | 1.7%
COc1ccccc1OCCn1c(NC(=O)c2cccs2)nc2ccccc21 | -10.6% | -6.5%

Next section; it opens with the 2 that closed the last part.
SMILES | StopGo FLuc | StopGo RLuc
CCOC(=O)N1CCN(C(=O)c2cc3occc3n2Cc2ccccc2F)CC1 | 1.0% | 1.7%
COc1ccccc1OCCn1c(NC(=O)c2cccs2)nc2ccccc21 | -10.6% | -6.5%
CCOc1ccccc1C1NC(=O)NC(CN2CCN(c3ccccn3)CC2)=C1C(=O)OC (stereo not drawn) | 17.9% | 4.9%
CCN(CC)C(=S)SCc1nc2ccccc2s1 | 95.8%[activator] | -9.1%[1.06 µM]
O=c1oc2ccccc2c(NC2CCCC2)c1NS(=O)(=O)c1cccc(F)c1 | 12.7% | 6.4%
O=C(COC(=O)c1ccc2ccccc2n1)Nc1cccc(Cl)c1 | -5.3% | -3.7%
OC[C@@H](O)[C@@H](O)[C@H](O)[C@H](O)CO | -11.6% | -7.1%
O=C(Cc1ccc(-c2ccccc2)cc1)NCCc1c[nH]c2ccccc12 | -21.7% | -18.3%
COc1ccc(OCC(=O)Nc2cccc(-c3nc4cc(C)ccc4o3)c2C)cc1 | 209.0%[activator] | 29.0%
CC1CCCC(N2CCN(Cc3ccc(Cl)cc3)CC2)C1 (stereo not drawn) | -8.7% | -10.4%
C=C(Br)COc1ccc(Cl)cc1C(N)=O | 23.9% | 0.9%
Cc1nc2c(C(=O)NCCC(C)C)cnn2c(C)c1Cc1c(F)cccc1Cl | -19.6% | -1.7%
CC(=O)c1ccc(NC(=O)CSc2cn(CC(=O)N(C(C)C)C(C)C)c3ccccc23)cc1 | 5.2% | -0.7%
Cc1cc(C)c(NC(=O)c2cc(S(=O)(=O)N3CCN(c4ccccc4F)CC3)ccc2F)c(C)c1 | 2.7% | 48.8%[activator]
O=C(NCc1ccc2c(c1)CCN2C(=O)c1ccc(F)cc1)c1ccco1 | 9.9% | -8.3%
CCc1ccc2oc(=O)cc(CN3CCN(Cc4ccccc4)CC3)c2c1 | -5.4% | -12.9%
Cc1ccc(S(=O)(=O)N2CCN(C(=O)Cc3sc(C)nc3-c3ccc(F)cc3)CC2)c(C)c1 | -27.9% | 28.1%
Cn1c(-c2cccc(Br)c2)c(-c2cn3ccccc3n2)c(=O)n(C)c1=O | 36.4%[activator] | -0.6%
C=CCSc1nc2c(c(=O)[nH]c(=O)n2C)n1CCOC | 22.0% | 0.8%
Cc1nc(N2C(=O)C(=O)/C(=C(/O)c3ccccc3)C2c2ccccc2F)sc1C (stereo not drawn) | 47.1%[activator] | 5.0%
COc1ccc2c(Sc3ccccc3)c(C(=O)NCCCN3CCCCC3)[nH]c2c1 | 0.0% | -0.5%
CC(C)CNC(=O)COc1ccc2c(C(C)C)cc(=O)oc2c1 | 17.1% | 3.4%
O=C(Oc1cccc2cccnc12)c1ccc2ccccc2c1 | -1.0% | -5.3%
CCNc1cc(C)nc(Nc2ccc(NS(=O)(=O)c3ccc(Cl)cc3)cc2)n1 | ? | ?
CCc1ccccc1Nc1ncnc2c1cnn2-c1ccc(Cl)cc1 | 64.0%[activator] | -11.3%
COc1ccc(CN(C)Cc2nnc(-c3ccccc3)o2)cc1F | 38.6%[activator] | 5.6%
CC(=O)NCc1ccc(-c2csc(Nc3ccc(F)cc3)n2)s1 | 12.3% | ?

(listing goes on)
canonical_smiles | StopGo FLuc | StopGo RLuc
Cc1ccc(-c2nc(C)c(CCNC(=O)c3cccs3)s2)cc1 | 254.9%[activator] | 7.4%
CCC(C)C(NC(=O)C1CCC(C(C)C)CC1)C(=O)O (stereo not drawn) | 6.8% | 16.4%
O=C(NCc1ccccc1F)C(=O)NCC(c1ccco1)S(=O)(=O)c1ccccc1 (stereo not drawn) | ? | 4.1%
COc1cc(C2CC(=O)N3CN(c4ccc(C)c(Cl)c4)CSC3=C2C#N)ccc1O (stereo not drawn) | 54.0%[activator] | -7.7%
COc1ccccc1OCCNc1nc2c(c(=O)n(C)c(=O)n2C)n1C | -7.6% | -7.4%
O=C(O)C/C(=C/c1cccc(Oc2ccc(Cl)cc2)c1)c1nc2ccccc2s1 | -3.8% | -3.7%
CCc1ccc(C(C)NC(=O)CN2CSCC2=O)cc1 (stereo not drawn) | 11.1% | -5.1%
C=CCc1ccccc1OCC(O)CN (stereo not drawn) | -6.0% | -6.3%[1.06 µM]
N=C(N)SCc1ccc(Cl)cc1Cl | 38.6%[activator] | 23.9%
COC(=O)c1ccccc1NC(=O)c1nc(SCc2ccccc2C)ncc1Cl | -13.5% | ?
COc1ccc2c(C)c(CCC(=O)Nc3ccccc3)c(=O)oc2c1 | 34.2% | 22.5%
CCCCC(CC)CNC(=O)c1ccc2c(=O)n(CCOC)c(=O)[nH]c2c1 (stereo not drawn) | -20.4% | -26.6%
CCC(Sc1nc2ncccc2c(=O)n1Cc1ccccc1)C(=O)Nc1ccc(OC)cc1 (stereo not drawn) | 17.1% | 202.0%[activator]
N#C/C(=C/c1ccc(-c2ccccc2)cc1)C(=O)c1ccsc1 | 0.0% | -1.2%
Cc1ccc(N2CC(c3nc4ccc(C)cc4[nH]3)CC2=O)cc1 (stereo not drawn) | -2.1% | 3.5%
Cc1c(NC(=O)c2cc3cc(Br)ccc3[nH]2)c(=O)n(-c2ccccc2)n1C | -8.1% | -18.2%
O=C(Nc1ccccc1C(=O)OCc1cc(=O)n2c3c(sc2n1)CCCC3)c1ccccc1 | ? | -28.7%
NC(=O)c1ccsc1NC(=O)COC(=O)c1ccc(F)c(F)c1 | 4.6% | 2.4%
CC(NC(=O)/C(=C\c1ccc(F)cc1)NC(=O)c1ccco1)C(=O)O (stereo not drawn) | 3.5% | 8.3%
CC(O)c1ccc(-c2ccc(CNCc3ccco3)o2)cc1 (stereo not drawn) | 170.6%[activator] | 21.6%
Cn1c(=O)c2c(nc(NCc3ccco3)n2Cc2cccc(Cl)c2)n(C)c1=O | ? | ?
Cc1ccc(-c2nc3nc(CNc4ccc(C)c(Cl)c4)cc(=O)n3[nH]2)cc1 | 11.3% | -1.8%
Cc1nn(C)c2c1c(-c1ccccc1)cc(=O)n2C(C)C(=O)NCc1ccc(F)cc1 (stereo not drawn) | -14.0% | -11.0%
O=C(CSc1nc2ccsc2c(=O)n1Cc1ccccc1F)NCc1ccccc1Cl | 5.7% | 0.0%
Cc1ccc2nc(-c3ccc(C)c(NC(=O)c4ccc([N+](=O)[O-])o4)c3)oc2c1 | 175.4%[activator] | -0.6%
COc1ccc(C2NC(=O)N(C)C3=C2C(=O)N(c2ccc(F)cc2)C3)cc1 (stereo not drawn) | -23.9% | -15.4%
COc1cc(-c2nnc(SCC(=O)Nc3cccc(C#N)c3)o2)cc(OC)c1OC | -3.9% | 5.3%
Cc1cccc(Nc2nnc(SC(C)C#N)s2)c1C (stereo not drawn) | 43.8%[activator] | 5.6%
COc1cc(-c2noc(-c3ccc(C(C)(C)C)cc3)n2)cc(OC)c1OC | 16.1% | 3.6%
Cc1noc(C)c1COc1ccc(CC(=O)N2CCN(CC(=O)N3CCCCC3)CC2)cc1 | 10.7% | 2.4%
NCc1cccnc1 | -15.5%[11.5 µM] | -4.8%
COc1cc(CCC(=O)OCC(=O)c2ccc(Cl)cc2)cc(OC)c1OC | 4.9% | 14.1%
CCOc1ccccc1NC(=O)c1cccn(Cc2ccccc2C)c1=O | 6.7% | -6.5%
COc1ccc(NC(=O)CN2C(=O)CN=C(c3ccccc3)c3ccccc32)c(OC)c1 | -21.1% | 3.9%
O=C(Nc1ccc2c(c1)CCC2)N1CCC2(CC1)OCCO2 | 154.5%[activator] | 2.2%
COc1ccc(C(=O)/C=C/c2cc(OC)ccc2OC)cc1 | 0.0% | ?
Cc1ccc(S(=O)(=O)NCCc2cccc3cccnc23)cc1 | 7.8% | 142.5%[activator]
CC#CC[N+](C)(C)CCCCCCCCCCCC | 12.6µM* | ?
CC(=O)N1CCc2cc(CNS(=O)(=O)c3ccc(Br)s3)ccc21 | 0.0% | 107.8%[activator]
CCc1nc2cc(C#N)c(C#N)cc2nc1C | 6.6% | 4.6%
O=C(NCCO)C(=O)Nc1c2c(nn1-c1ccc(F)cc1)CSC2 | -0.6% | -6.2%
CCCc1nnc(NC(=O)Cn2ccc3c(Cl)cccc32)s1 | 10.6% | 1.2%
O=C1CN(C(=O)Nc2ccccc2C(F)(F)F)C(c2ccccc2)c2c(sc3c2CCCC3)N1 (stereo not drawn) | 3.2% | 25.2%
Cn1c(=O)cc(OCCCC(=O)Nc2ccc(F)cc2)c2ccccc21 | 0.0% | 10.4%
Cc1ccc(O)c(NC(=O)c2nc3nc(C)cc(C(F)F)n3n2)c1 | 4.5% | 12.2%
Cc1nc(CSc2ccccc2C(=O)N2CCCc3ccccc32)no1 | 38.3%[activator] | 0.5%
CCOC(=O)c1cc(-c2ccccc2)n(CCC(=O)NCc2ccccc2Cl)c1C | -27.9% | 146.5%[activator]
Cn1cc(C(=O)Nc2ccc(C#N)cc2)c2ccccc2c1=O | -17.4% | 21.4%
CCn1c(CN2CCCCC2)nc2cc(NC(=O)COc3ccc(C(C)(C)C)cc3)ccc21 | -8.7% | -12.1%
COc1ccc(Cc2nc3ccc(C(=O)NCCc4ccccc4)cc3o2)cc1 | -7.6% | -7.3%

3 entries drawn at random from those above:
canonical_smiles | StopGo FLuc | StopGo RLuc
Cc1noc(C)c1COc1ccc(CC(=O)N2CCN(CC(=O)N3CCCCC3)CC2)cc1 | 10.7% | 2.4%
COc1ccc(C2NC(=O)N(C)C3=C2C(=O)N(c2ccc(F)cc2)C3)cc1 (stereo not drawn) | -23.9% | -15.4%
O=C(Nc1ccc2c(c1)CCC2)N1CCC2(CC1)OCCO2 | 154.5%[activator] | 2.2%

(cont.)
canonical_smiles | StopGo FLuc | StopGo RLuc
Cc1nc(-c2ccc(S(=O)(=O)N(Cc3ccccc3)C(C)C)cc2)co1 | -10.7% | 20.2%
Clc1cccc(CNCCOc2ccccn2)c1 | 10.2% | -0.3%
COc1ccc(-c2noc(CNC(=O)CCc3c(C)c4ccc(O)cc4oc3=O)n2)cc1 | ? | ?
COc1ccc(NC(C)=O)cc1NC(=O)CCc1c[nH]c2ccccc12 | 7.9% | 1.8%
CN(CCCC(=O)OC(C)(C)C)C(=O)/C=C/c1ccc(Cl)cc1 | 21.3% | -13.8%
Cc1ccc(NC(=O)CN(C)CC(=O)NC2(C#N)CCCC2)cc1 | 14.1% | 5.2%
S=C(NCCc1ccccc1)c1ccccc1 | 192.7%[activator] | 46.1%[activator]

By substructure: the entries above with a COOH group
canonical_smiles | StopGo FLuc | StopGo RLuc
CCC(C)C(NC(=O)C1CCC(C(C)C)CC1)C(=O)O (stereo not drawn) | 6.8% | 16.4%
O=C(O)C/C(=C/c1cccc(Oc2ccc(Cl)cc2)c1)c1nc2ccccc2s1 | -3.8% | -3.7%
CC(NC(=O)/C(=C\c1ccc(F)cc1)NC(=O)c1ccco1)C(=O)O (stereo not drawn) | 3.5% | 8.3%

Bioassay records (PubChem)
